VDR inh – blocks the human vitamin D receptor; P11473; VDR-SRC2-3 peptide fluorescence polarization, 2 h; Potency, µM, for inactives: max response, negative = inhibition, hits mostly inhibitors; 0.93% of 400,000 active; active = well fitted inhibition curve with a large enough effect; inconclusive = small, poorly fitted or top-dose-only effect, or another doubt; inactive = no such curve, though single readings can be large or run the other way; also: series mostly up to about 120 µM
Target sequence (P11473 whole entry, looked up): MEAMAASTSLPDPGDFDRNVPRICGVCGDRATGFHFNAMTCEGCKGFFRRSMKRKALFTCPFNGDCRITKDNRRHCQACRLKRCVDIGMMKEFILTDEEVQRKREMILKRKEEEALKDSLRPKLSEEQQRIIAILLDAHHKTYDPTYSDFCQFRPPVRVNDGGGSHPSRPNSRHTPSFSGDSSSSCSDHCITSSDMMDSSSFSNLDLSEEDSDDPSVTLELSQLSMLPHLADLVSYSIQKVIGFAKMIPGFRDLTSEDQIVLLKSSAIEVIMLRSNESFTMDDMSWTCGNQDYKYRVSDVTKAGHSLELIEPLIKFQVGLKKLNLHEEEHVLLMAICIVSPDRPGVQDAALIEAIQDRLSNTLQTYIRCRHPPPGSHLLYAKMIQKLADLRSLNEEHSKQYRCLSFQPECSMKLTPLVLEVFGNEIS
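Fluorescence polarization assay of small-molecule disruption of VDR binding to coregulator peptide SRC2-3. Compounds and controls pin-transferred, then read after 2 h incubation at ambient room temperature.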
Active calls of the source: *; ? = inconclusive; & = joins results of further samples. % is scaled to controls: 0 for no effect and ±100 for the full control effect; potency is read from the fitted curve at half-maximal effect.

SMILES	VDR inh
CCN(CC(=O)NC(C)C)C(=O)C(CCSC)NC(=O)c1cccc(C)c1 (centres undefined)	-16%
CCCC(=O)C1=C(O)C(C(=O)OC)C(C)(C)CC1=Nc1cccc2ccccc12 (centres undefined)	9%
C[N+](C)(C)CC(O)CC(=O)O (centres undefined)	-7%&9%
COc1ccc2oc(C(=O)NCc3ccccc3CN3CCCC3)c(C)c2c1	-4%
CCOC(=O)c1cc(-c2ccccc2)n(CC(=O)Nc2ccc(OC)cc2OC)c1C	15%
CN(C)S(=O)(=O)c1cccc(NC(=O)/C=C/c2ccccc2[N+](=O)[O-])c1	11%
CCOC(=O)c1c(C)[nH]c(C)c1S(=O)(=O)NCCCc1ccco1	-2%
CCCc1cc(=O)[nH]c(SCC(=O)N(CC(C)C)C2CCS(=O)(=O)C2)n1 (centres undefined)	11%
O=S1(=O)c2ccc(Br)cc2N2CC[C@H](C2)N1Cc1ccc(Cl)cc1	-16%
Cc1cccc(N2CCN(C(=O)Cc3ccc(Br)cc3)CC2)c1C	5%
CCCS(=O)(=O)N1CCN(C(=O)COc2ccc(-c3ccccc3)cc2)CC1	-12%
CCc1ccccc1NC(=O)C1CCN(C(=O)c2cccs2)CC1	5%
Cc1ccc(NS(=O)(=O)c2ccc(NS(=O)(=O)c3cccs3)cc2)cc1	13%
CC(=O)OCN(C#N)c1nc(N(C)C)nc(N(C)C)n1	-5%
O=S(=O)(N/N=C/c1ccc2c(c1)OCCO2)c1ccc(Cl)cc1	11%
Cc1ccc(-n2nnc(-c3cccnc3Cl)n2)cc1	4%
COc1cc(C(C#N)N2CCCCC2)ccc1O (centres undefined)	15%
O=C(CN1C(=O)NC2NC(=O)NC21)NN=C1CCCC1 (centres undefined)	11%
Cc1cn2c(=O)cc(COC(=O)c3cccc(NC(=O)C(C)Oc4ccccc4)c3)nc2s1 (centres undefined)	-5%
CCc1sc(C(=O)NC(C)C2CCCO2)cc1Br (centres undefined)	-1%
O=C(Cc1ccccc1)Nc1ccc(NC(=O)c2ccco2)nc1	-8%
Cc1ccc(Oc2ncccc2C(=O)NCC(=O)O)cc1	-7%
CC1(C)c2ssc(=S)c2-c2ccccc2N1C(=O)c1ccco1	?
CC(C)CN(C(=O)COC(=O)c1ccc(-c2ccccc2)cc1)C1CCS(=O)(=O)C1 (centres undefined)	-19%
COC(=O)c1c(NC(=O)C2CCCCC2)sc2c1CCN(C(C)C)C2	-1%
O=C(CSc1nc2ccccc2[nH]1)Nc1ccc(F)c(F)c1	-11%
CCCCc1nnc(NC(=O)CSc2nc(=O)cc(N)n2-c2cccc(C)c2)s1	-10%
COc1ccc(C2CC(=O)c3cc(-c4nc(-c5cccc(Cl)c5)cs4)c(=O)[nH]c3C2)cc1OC (centres undefined)	-9%
Cc1ccc(C(=O)Nc2ccc(OCc3cc(=O)n4c5c(sc4n3)CCCC5)cc2)cc1	-3%
N/C(=N/O)c1nc(N2CCCC2)nc(N2CCCC2)n1	3%
Cc1ccc(S(=O)(=O)/N=C(\N)Nc2nc(C)c3ccccc3n2)cc1	-8%
CCN(CC)c1ccc(NS(=O)(=O)c2cc(-c3cc(C)no3)ccc2C)c(C)c1	10%
O=[N+]([O-])c1ccc(Sc2nnnn2-c2ccccc2)c(Cl)c1	1%
CCCn1nc(C(=O)Nc2nc3ccccc3[nH]2)c2ccccc2c1=O	-3%
c1ccc(-c2cc3c(N4CCN(c5ncccn5)CC4)ncnc3s2)cc1	-11%
COC(=O)C1CN(C(=O)C(C)Oc2ccc(F)cc2)c2ccccc2O1 (centres undefined)	5%
O=C(NCc1ccccn1)[C@@H]1C[C@H]1[C@@H](NP(=O)(c1ccccc1)c1ccccc1)c1ccccc1	-12%
COc1ccc(N2CCN(C(c3cc4cc(C)ccc4[nH]c3=O)c3nnnn3Cc3ccccc3)CC2)cc1 (centres undefined)	1%
Cc1cc2cc(CN(C(=O)C3CC3)C3CCCC3)c3nnnn3c2cc1C	-17%
O=C(NC1CCCc2ccccc21)c1ccc2c(c1)sc1nc(-c3ccc(F)cc3)cn12 (centres undefined)	4%
O=C(O)c1ccc(OC(F)(F)C(F)C(F)(F)F)cc1 (centres undefined)	-4%
CC[C@]12c3[nH]c4ccc(OC)cc4c3CCN1C(=O)C(CC(=O)NCCN1CCOCC1)C[C@@H]2C(=O)N1CCN(C(=O)C2CC2)CC1 (some centres undefined)	-11%
Cc1ccnc(SCC(=O)Nc2sc3c(c2C#N)CCCC3)n1	5%
CCOC(=O)CSc1nc(C)c2cc(OC)ccc2n1	-1%
O=c1oc2ccccc2c(Cl)c1CN1CCCCC1	4%
CCCCOc1ccc(/C(O)=C2/C(=O)C(=O)N(CCCOC)C2c2ccncc2)cc1C (centres undefined)	-10%
COc1cc(C(=O)Nc2ccccc2OCc2cc(=O)n3cc(C)sc3n2)cc(OC)c1OC	-22%
CC1CC(C)CN(C(=O)C(C)N2CCN(S(=O)(=O)c3ccc(C(F)(F)F)cc3)CC2)C1 (centres undefined)	21%

Look-ups from the entries so far.
N/C(=N/O)c1nc(N2CCCC2)nc(N2CCCC2)n1 @ VDR inh: 3%
CCCn1nc(C(=O)Nc2nc3ccccc3[nH]2)c2ccccc2c1=O @ VDR inh: -3%
O=[N+]([O-])c1ccc(Sc2nnnn2-c2ccccc2)c(Cl)c1 @ VDR inh: 1%
COc1ccc(C2CC(=O)c3cc(-c4nc(-c5cccc(Cl)c5)cs4)c(=O)[nH]c3C2)cc1OC (centres undefined) @ VDR inh: -9%

Next structures.
SMILES	VDR inh
CC(C)(CNC(=S)NCCc1ccccc1)CNC(=S)NCCc1ccccc1	16%
Cc1ccc(C(=O)O/N=C/C2=C(Cl)c3ccccc3CC2)cc1	-4%
CCCCn1c(SCC(N)=O)nnc1-c1ccco1	-6%
NC(=O)[C@@H]1CC2(CC(c3cccc(NC(=O)COc4ccc(Cl)cc4)c3)=NO2)CN1C(=O)COc1ccc(Cl)cc1 (some centres undefined)	6%
Cc1cccc(NC(=O)Cn2cnc3c(oc4ccccc43)c2=O)c1	6%
Cc1noc(C)c1NC(=O)Nc1cccc2c1O[C@H](CN(C)S(=O)(=O)c1ccc(F)cc1)[C@@H](C)CN([C@H](C)CO)C2=O	-23%
CCOC(=O)c1[nH]c(C)c(C(=O)Nc2ccc3c(c2)OCCO3)c1C	-6%
C[C@H](Nc1ncnc2sc3c(c12)CCC3)C(=O)O	-13%
O=C(CNC1CC1)Nc1cc(C(F)(F)F)ccc1Cl	-11%
CCOC(=O)N1CCC(N(CCOC)C(=O)Nc2ccc(CC)cc2)CC1	5%
Cc1cc2c(cc1S(=O)(=O)NCc1ccc(F)cc1)OCCN2C	-2%
CN(C)/C=C(\C(=O)c1ccccc1)c1nnnn1-c1ccc(F)cc1	6%

Retrieved by compound from the entries so far (6):
SMILES	VDR inh
CC(C)(CNC(=S)NCCc1ccccc1)CNC(=S)NCCc1ccccc1	16%
Cc1cc2c(cc1S(=O)(=O)NCc1ccc(F)cc1)OCCN2C	-2%
C[C@H](Nc1ncnc2sc3c(c12)CCC3)C(=O)O	-13%
Cc1noc(C)c1NC(=O)Nc1cccc2c1O[C@H](CN(C)S(=O)(=O)c1ccc(F)cc1)[C@@H](C)CN([C@H](C)CO)C2=O	-23%
NC(=O)[C@@H]1CC2(CC(c3cccc(NC(=O)COc4ccc(Cl)cc4)c3)=NO2)CN1C(=O)COc1ccc(Cl)cc1 (some centres undefined)	6%
CCOC(=O)c1[nH]c(C)c(C(=O)Nc2ccc3c(c2)OCCO3)c1C	-6%

Additional compounds follow:
SMILES	VDR inh
N#CCC(=O)Nc1ccc(C(=O)NNC(=S)NC2CC2)cc1	-2%
Cc1ccc(-n2c(C)nc3c(cnn3-c3ccc(F)cc3)c2=O)cc1	12%
O=C(COC(=O)Cc1ccc(S(=O)(=O)N2CCOCC2)s1)Nc1ccccc1Cl	3%
O=C(Cn1c(=O)n(-c2ccc(F)c(Cl)c2)c(=O)c2sc3ccccc3c21)NC1CCCC1	9%
COC1OC(COC(=O)CNC(=O)OC(C)(C)C)C(O)C(O)C1O (centres undefined)	-13%
COC(=O)c1ccccc1NC(=O)c1noc2c1CCCC2	-12%
Cc1ccc(S(=O)(=O)N(CC(=O)N2CCc3ccccc3C2)c2ccc(Cl)c(Cl)c2)cc1	6%
Cc1ccc(S(=O)(=O)Oc2ccccc2[N+](=O)[O-])cc1	-7%
C#CC[N+]1(CC#Cc2cccc(C)c2)CCCCC1	-27%
COCCCn1cnc2c(c1=O)c1nc3ccccc3nc1n2-c1ccccc1	-2%
CCCCNc1nc(Oc2ccc(OCC)nn2)nc(N2CCOCC2)n1	8%
Cc1ccc(CNC(=O)C(=O)NCC2OCCN2S(=O)(=O)c2ccc(Cl)cc2)cc1 (centres undefined)	4%
CCC1CCCCN1CCCNC(=O)CN1C(=O)CSc2ccc(S(=O)(=O)N3CCC(C)CC3)cc21 (centres undefined)	-16%&1%
CC1CCc2nc(/C(C#N)=C/c3cccnc3)sc2C1 (centres undefined)	-15%
O=C(CN1C(=O)COc2ccc(S(=O)(=O)N3CCCCC3)cc21)NCc1ccccc1Cl	-17%&6%
CCCCCn1c(=O)[nH]c2cc(C(=O)NCCc3ccc(OC)c(OC)c3)ccc2c1=O	-4%
CC1(C)N=C(c2ccc(Cl)cc2Cl)C(=O)N1	7%
O=C(COC(=O)c1ccccc1Cc1ccccc1)NC1CCS(=O)(=O)C1 (centres undefined)	-10%
COc1ccc(NC2CCCN(C(=O)CN3CCOC3=O)C2)cc1 (centres undefined)	-1%
CCCn1c(=O)c2sccc2n2c(CCCC(=O)Nc3ccc(Oc4ccc(Cl)cc4)cc3)nnc12	8%
NS(=O)(=O)c1ccc(NC(=O)CSc2nc3c(cnn3-c3ccccn3)c(=O)[nH]2)cc1	-4%
CCN(CC)C(=O)C1CCCN(C/C=C/c2ccccc2[N+](=O)[O-])C1 (centres undefined)	-9%
COc1ccc2cc(CCl)c(Cl)nc2c1	-10%
COc1ccc(C(=O)NCC(c2cccnc2)N2CCN(c3ccccc3OC)CC2)cc1 (centres undefined)	-2%

A draw from above in order of length of the SMILES, lowest first.
SMILES	VDR inh
CC1(C)N=C(c2ccc(Cl)cc2Cl)C(=O)N1	7%
COc1ccc(NC2CCCN(C(=O)CN3CCOC3=O)C2)cc1 (centres undefined)	-1%
O=C(COC(=O)c1ccccc1Cc1ccccc1)NC1CCS(=O)(=O)C1 (centres undefined)	-10%
COc1ccc(C(=O)NCC(c2cccnc2)N2CCN(c3ccccc3OC)CC2)cc1 (centres undefined)	-2%
CCC1CCCCN1CCCNC(=O)CN1C(=O)CSc2ccc(S(=O)(=O)N3CCC(C)CC3)cc21 (centres undefined)	-16%&1%

Taken from the listing (2 entries):
SMILES	VDR inh
COc1ccc2cc(CCl)c(Cl)nc2c1	-10%
COc1ccc(C(=O)NCC(c2cccnc2)N2CCN(c3ccccc3OC)CC2)cc1 (centres undefined)	-2%

Further records follow:
SMILES	VDR inh
CC(=O)NC(c1ccco1)c1ccc2cccnc2c1O (centres undefined)	-8%
CC(C)CCC[C@@H](C)[C@H]1CC[C@H]2[C@@H]3CC[C@@H]4C[C@H](O)CC[C@]4(C)[C@H]3CC[C@]12C	-11%
COC(=O)c1sc(N)c(C(=O)OC)c1COC(=O)CCNS(=O)(=O)c1ccc(C)cc1	0%
CN(C)CCOc1ncnc2c1oc1ccccc12	6%
Cc1ccc(NC(=O)CN2C(=O)N/C(=C/c3cccn3-c3ccc(C(=O)O)cc3)C2=O)cc1	-9%
Cc1csc(NC(=O)CSc2nncc(=O)n2N)n1	-10%
Cc1nc2c(oc3ccccc32)c(=O)o1	8%
CCn1c(CN2c3ccccc3Sc3ccccc32)n[nH]c1=S	-1%
O=C(N/N=C/c1ccccc1[N+](=O)[O-])C(=O)N1CCCC1	-12%
Cn1nc(C(=O)NCc2cccc(F)c2)cc1C(=O)NCc1cccc(F)c1	15%
COc1cccc(-c2ccc(NC(=O)C3CCCN(Cc4cnn(C(C)C)c4)C3)cc2)c1 (centres undefined)	0%
O=C(N/N=C/C=C\c1ccco1)c1ccccn1	79µM*
NS(=O)(=O)c1ccc(NNC(=O)c2ccc(Br)o2)c([N+](=O)[O-])c1	-10%
Cn1nnnc1SCCCNCc1ccc(Cl)cc1	14%
COc1ccc(-c2nc(C#N)c(N3CCN(c4cccc(Cl)c4)CC3)o2)cc1OC	-3%
CC1=NN(C(=O)c2ccc(Br)cc2)C(O)(C(F)(F)OC(F)(F)F)C1 (centres undefined)	17%
COc1ccc(CC(=O)N/N=C(\C)CC(=O)NCc2ccco2)cc1OC	1%
Cc1ccc(OCC(=O)N(Cc2ccco2)Cc2ccc(C)o2)cc1	14%
COc1ccccc1-c1coc2cc(OC(=O)/C=C/c3ccccc3)ccc2c1=O	-13%
C=CCc1cccc2cc(C(=O)Nc3ccccc3C(=O)O)c(=O)oc12	3%
CCCCn1c(N)c(N(C)C(=O)c2cc3c(s2)CCCCC3)c(=O)[nH]c1=O	-23%
COc1ccccc1Nc1cc(C)nc(Nc2ccccc2OC)n1	1%
CCc1ccc(OCC2c3cc(OC)c(OC)cc3CCN2C(=O)COc2ccccc2)cc1 (centres undefined)	9%
Cc1ccc(-n2nc3c(=O)n(CCCC(=O)NCCc4ccccc4Cl)nc(C)c3c2C)cc1	4%
Cc1cc(Cl)ccc1OCC(=O)NCCC(=O)O	8%
COc1ccc(CCNC(=O)CNS(=O)(=O)c2cccs2)cc1OC	-3%
Cc1ccc(N2C(=O)[C@@H]3C(C(=O)CCN4C(=O)c5ccccc5C4=O)=NN[C@@H]3C2=O)cc1	1%
COc1ccc([C@@H]2CC=C(C(=O)O)[C@H](c3ccc(Br)cc3)N2S(=O)(=O)c2ccc(C)cc2)cc1OC	-3%
Cc1ccc2nc(NC(=O)c3ccc(N4C(=O)CCC4=O)cc3)sc2c1	1%
Cc1cccc(NC(=O)CSc2nc(N)c(NC(=O)c3ccccc3F)c(=O)[nH]2)c1	-9%
COc1ccc(CN2C[C@H](Cc3ccccc3)[C@@H](CC(=O)Nc3ccccc3)C2=O)cc1	-11%
COc1cccc(NC(=O)Nn2cnnc2)c1	-12%
COc1cc2nc(SCc3ccc(C(F)(F)F)cc3)n(Cc3cccs3)c(=N)c2cc1OC	13%

A portion of the library (hit frequency here may not be typical).
